ID4 SMM: binders of human ID4 protein, primary screen, biochemical, small molecule microarray, single point | calls only | DNA-binding protein inhibitor ID-4 (Homo sapiens), P47928 | 1.2% of 31,000 active | Flag-ID4 binding, fluorescence F/B;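 active means spot signal over background at p below 0.07 in all four prints; compounds were printed on slides so no solution concentration is given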;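 further: a binder raises fluorescence above local background on the spot; about 2 pmol printed per array spot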
Target sequence (P47928 whole entry, looked up): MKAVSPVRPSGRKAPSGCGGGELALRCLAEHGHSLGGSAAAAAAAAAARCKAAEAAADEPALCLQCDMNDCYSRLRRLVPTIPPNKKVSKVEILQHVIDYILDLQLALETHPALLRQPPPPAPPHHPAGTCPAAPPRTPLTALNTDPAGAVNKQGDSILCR
mut p53 SMM: binders of human mutant p53, primary screen, biochemical, small molecule microarray, anti-GST fluorescence; mutant tumor protein p53 (GST-tagged), Homo sapiens; small molecule microarray binding; calls only; 0.4% of 17,000 active; AID 624136, 2012;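 active means compounds whose four printed spots each glow above background more than chance allows, each with a p-value under 7%; compounds were printed on slides so no solution concentration is given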;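 further: about 2 pmol printed per array spot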
Myc binder: binders of human c-Myc, primary screen, biochemical, small molecule microarray, anti-His fluorescence. calls only. 1.5% of 17,000 active. His-c-Myc binding. AID 624141, 2012. Myc proto-oncogene protein (Homo sapiens), P01106;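 active means spot fluorescence over background with P-value below 7% in all four replicate spots, showing protein binding; compounds were printed on slides so no solution concentration is given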;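 further: score is binary with 100 for all four spots passing and 0 otherwise; about 2 pmol printed per array spot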
Target sequence (P01106 whole entry, looked up): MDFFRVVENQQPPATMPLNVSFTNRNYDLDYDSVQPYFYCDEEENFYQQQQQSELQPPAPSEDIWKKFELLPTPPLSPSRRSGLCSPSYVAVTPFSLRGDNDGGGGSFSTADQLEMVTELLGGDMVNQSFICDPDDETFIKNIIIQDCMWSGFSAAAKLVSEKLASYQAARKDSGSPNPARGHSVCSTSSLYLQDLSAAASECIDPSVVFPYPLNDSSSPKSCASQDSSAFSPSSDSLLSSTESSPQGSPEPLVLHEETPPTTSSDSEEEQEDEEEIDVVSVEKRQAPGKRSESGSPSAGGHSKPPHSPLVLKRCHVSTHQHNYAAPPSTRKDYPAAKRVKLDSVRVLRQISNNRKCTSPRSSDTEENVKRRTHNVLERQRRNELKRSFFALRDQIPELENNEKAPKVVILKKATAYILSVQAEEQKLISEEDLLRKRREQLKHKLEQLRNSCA
STAT3 SMM: STAT3 binders, primary screen, biochemical, small molecule microarray, single point, set 2; Signal transducer and activator of transcription 3 (Homo sapiens), P40763; 0.2% of 17,000 active; His-STAT3 binding, anti-His fluorescence; calls only;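 active means compounds whose four printed spots each show fluorescence over background unusually high for their array block, chance value under 7%; compounds were printed on slides so no solution concentration is given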;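 further: about 2 pmol printed per array spot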
Calls only; i = inactive; / = no result given; + = active, no number. A portion of the library (hit frequency here may not be typical).

mol | ID4 SMM | mut p53 SMM | Myc binder | STAT3 SMM
COc1ccc(NC(=O)Nc2ccc3c(c2)CC(=O)N([C@@H](C)CO)C[C@@H](C)[C@@H](CN(C)S(=O)(=O)c2ccc(C)cc2)O3)cc1 | i | i | i | i
COc1ccc(CN(C)C[C@@H]2Oc3ccc(NC(=O)Nc4ccc(F)cc4)cc3C(=O)N([C@@H](C)CO)C[C@@H]2C)cc1 | i | i | i | i
C[C@@H]1CN([C@H](C)CO)C(=O)Cc2cc(NC(=O)Nc3ccccc3)ccc2O[C@H]1CN(C)Cc1ccc(C(=O)O)cc1 | i | i | i | i
COC(=O)Nc1scc(-c2ccccc2)c1C(=O)NCc1ccco1 | i | i | i | i
Cc1ccc(N(Cc2ccc(C(=O)Nc3cc([N+](=O)[O-])ccc3C)cc2)S(C)(=O)=O)cc1C | i | i | i | i
COc1ccccc1CN(C)C[C@H]1OCc2cn(nn2)CCCC(=O)N([C@@H](C)CO)C[C@@H]1C | i | i | i | i
CC(C)NC(=O)N(C)C[C@H]1Oc2ccc(NC(=O)CCC(F)(F)F)cc2C(=O)N([C@@H](C)CO)C[C@H]1C | i | i | i | i
C[C@@H]1CN([C@H](C)CO)C(=O)Cc2cc(NC(=O)CCC(F)(F)F)ccc2O[C@H]1CN(C)S(=O)(=O)c1ccccc1 | i | i | i | i
C[C@H]1CN([C@@H](C)CO)C(=O)c2cccc(N(C)C)c2O[C@H]1CN(C)Cc1ccc(C(=O)O)cc1 | i | i | i | i
COc1ccc(NC(=O)CS(=O)(=O)c2ccc(C)cc2)c(OC)c1 | i | i | i | i
C[C@H](CO)N1C[C@H](C)[C@@H](CN(C)S(=O)(=O)c2cccs2)Oc2c(NC(=O)c3ccncc3)cccc2C1=O | i | i | i | i
COc1ccccc1NC(=O)N(C)C[C@@H]1OCc2cnnn2CCCC(=O)N([C@@H](C)CO)C[C@H]1C | + | i | i | i
COc1ccc(S(=O)(=O)N(C)C[C@H]2Oc3c(NS(=O)(=O)c4cccs4)cccc3C(=O)N([C@@H](C)CO)C[C@@H]2C)cc1 | i | i | i | i
Cc1cc(O)cc2oc3cc(O)cc(O)c3c(=O)c12 | / | i | i | i
C[C@H](CO)N1C[C@H](C)[C@@H](CN(C)Cc2ccc(C(=O)O)cc2)Oc2ccc(NC(=O)Nc3ccc(F)cc3)cc2CC1=O | i | i | i | i
C[C@H](CO)N1C[C@H](C)[C@H](CN(C)C(=O)Nc2ccc3c(c2)OCO3)Oc2ccc(NS(=O)(=O)c3ccc(Cl)cc3)cc2C1=O | i | i | i | i
CNC[C@H]1Oc2c(NC(=O)c3ccc(-c4nccs4)cc3)cccc2C(=O)N([C@H](C)CO)C[C@@H]1C | i | i | i | i
COc1ccc(CCNC(=S)Nc2ccncc2)cc1OC | i | i | i | i
COCCNC(=S)N1CCN(Cc2ccco2)CC1 | + | i | i | i
C[C@@H]1O[C@@H](Oc2ccc(-c3coc4cc(O[C@@H]5O[C@@H](C)[C@H](O)[C@@H](O)[C@H]5O)ccc4c3=O)cc2)[C@H](O)[C@H](O)[C@H]1O | i | i | i | i
C[C@@H]1CCCCO[C@H](CN(C)C)[C@H](C)CN([C@@H](C)CO)C(=O)c2cc(NC(=O)Nc3ccc4c(c3)OCO4)ccc2O1 | i | i | i | i
COc1ccc(CC(=O)Nc2cccc(-c3nnc(-c4ccc(C)cc4)o3)c2)cc1OC | i | i | i | i
C[C@H](CO)N1C[C@H](C)[C@H](CN(C)S(=O)(=O)c2ccccc2)OCCCC[C@H](C)Oc2ccc(NC(=O)Nc3ccc(F)cc3)cc2C1=O | / | i | i | i
COC(=O)CCCCCCC(=O)NOCc1ccccc1 | / | i | i | i
Cc1nn(CC(=O)Nc2ccc3c(c2)nc(CN2CCCC2)n3C)c(=O)c2ccccc12 | i | + | + | i
CN=C(NC#N)NCCSCc1csc(N=C(N)N)n1 | i | i | i | i
C[C@@H]1CCCCO[C@@H](CN(C)C(=O)C2CCCCC2)[C@@H](C)CN([C@@H](C)CO)C(=O)c2cc(NC(=O)c3ccncc3)ccc2O1 | i | i | i | i
C[C@H](CO)N1C[C@H](C)[C@H](CN(C)C)OCCCC[C@H](C)Oc2ccc(NC(=O)c3ccncc3)cc2C1=O | i | i | i | i
CNC[C@H]1OCCCC[C@H](C)Oc2ccc(NS(=O)(=O)c3ccc(OC)cc3)cc2C(=O)N([C@@H](C)CO)C[C@H]1C | / | i | i | i
C[C@@H]1CN([C@H](C)CO)C(=O)Cc2cc(NS(=O)(=O)c3ccccc3)ccc2O[C@@H]1CN(C)C(=O)Nc1ccccc1 | i | i | i | i
C[C@H]1CN([C@@H](C)CO)C(=O)CCCn2cc(nn2)CO[C@@H]1CN(C)C(=O)c1cc(-c2ccccc2)on1 | i | i | i | i
C[C@H](CO)N1C[C@H](C)[C@H](CN(C)Cc2ccc(Cl)c(Cl)c2)Oc2ccc(NS(C)(=O)=O)cc2CC1=O | i | i | i | i
O=[N+]([O-])c1ccc(O)c(Nc2ncnc3ccccc23)c1 | i | i | i | i
CCCCCCCCCCCCCC(=O)N[C@H](C)[C@@H](O)c1ccccc1 | i | i | i | i
Cc1noc(C)c1NC(=O)Nc1cccc2c1O[C@H](CN(C)Cc1ccncc1)[C@@H](C)CN([C@H](C)CO)C2=O | i | i | i | i
C[C@H]1CN([C@@H](C)CO)C(=O)Cc2cc(NC(=O)Cn3cnnn3)ccc2O[C@H]1CN(C)S(=O)(=O)c1ccccc1 | i | i | i | i
c1ccc2cc(C3=NCCN3)ncc2c1 | i | i | i | i
C[C@H](CO)N1C[C@H](C)[C@@H](CN(C)C(=O)Nc2ccc3c(c2)OCO3)OCCCC[C@H](C)Oc2ccc(NS(C)(=O)=O)cc2C1=O | i | i | i | i
COc1ccc(/C=C/c2cc(O)cc(O[C@@H]3O[C@H](CO)[C@@H](O)[C@H](O)[C@H]3O)c2)cc1 | i | i | i | i
C[C@@H]1CN([C@@H](C)CO)C(=O)c2cccc(NC(=O)Nc3ccc(C(F)(F)F)cc3)c2O[C@H]1CN(C)C | i | i | i | i
C[C@H](CO)N1C[C@H](C)[C@H](CN(C)C)Oc2ccc(NC(=O)NC3CCCCC3)cc2CC1=O | i | i | i | i
Cc1noc(C)c1NC(=O)Nc1ccc2c(c1)C(=O)N([C@@H](C)CO)C[C@@H](C)[C@H](CN(C)C(=O)NC(C)C)OCCCC[C@H](C)O2 | i | i | i | i
C[C@@H]1CN([C@H](C)CO)C(=O)c2cc(NC(=O)Nc3ccccc3)ccc2O[C@@H](C)CCCCO[C@@H]1CN(C)C(=O)C1CCCCC1 | i | i | i | i
Cc1noc(C)c1S(=O)(=O)Nc1ccc2c(c1)CC(=O)N([C@@H](C)CO)C[C@@H](C)[C@H](CN(C)C(=O)NC(C)C)O2 | i | i | i | i
C[C@@H]1CCCCO[C@H](CN(C)Cc2ccccc2)[C@H](C)CN([C@H](C)CO)C(=O)c2cc(NS(=O)(=O)c3ccccc3)ccc2O1 | i | i | i | i
CN(C)CCCN1C(=O)[C@@]2(Cc3ccccc31)c1ccccc1C(=O)N(C1CCCCC1)[C@H]2c1ccc(CO)cc1 | / | i | i | i
C[C@H]1CN([C@@H](C)CO)C(=O)c2cc(N(C)C)ccc2O[C@H]1CN(C)Cc1ccc2c(c1)OCO2 | i | i | i | i
CCc1cccc(C)c1NC(=O)CSc1nnc(C)n1-c1ccc(F)cc1 | i | i | i | i

Going on with the list.
| SMILES | ID4 SMM | mut p53 SMM | Myc binder | STAT3 SMM |
| --- | --- | --- | --- | --- |
| C[C@@H]1CN([C@H](C)CO)C(=O)c2cc(NC(=O)Nc3ccc4c(c3)OCO4)ccc2O[C@@H]1CN(C)S(=O)(=O)c1cccs1 | i | i | i | i |
| C[C@H]1CN([C@@H](C)CO)C(=O)Cc2cc(NC(=O)c3ccncc3)ccc2O[C@@H]1CN(C)C(=O)Nc1ccc(F)cc1 | i | i | i | i |
| CC(C)(C)c1ccc(S(=O)(=O)CCSc2nc3ccccc3o2)cc1 | i | i | i | i |
| Cc1noc(C)c1S(=O)(=O)Nc1ccc2c(c1)C(=O)N([C@H](C)CO)C[C@H](C)[C@H](CN(C)C)OCCCC[C@@H](C)O2 | i | i | i | i |
| CCOc1ccccc1NC(=O)NCc1cccnc1 | i | i | i | i |
| O=C1c2ccccc2C(=O)N1C[C@@H]1CCCN(Cc2ccc(OCCO)cc2)C1 | + | i | i | i |
| Cc1noc(C)c1S(=O)(=O)Nc1ccc2c(c1)C(=O)N([C@H](C)CO)C[C@H](C)[C@H](CN(C)C(=O)c1ccncc1)OCCCC[C@@H](C)O2 | i | i | i | i |
| O=C(CCSc1nc2ccccc2s1)Nc1ccccc1Cl | i | i | i | i |
| O=C(NC1CC1)C1=C[C@@H](c2coc3ccccc3c2=O)C[C@@H](OCCCCO)O1 | i | i | i | i |
| C[C@H](CO)N1C[C@H](C)[C@H](CN(C)Cc2ccc3c(c2)OCO3)OCCCC[C@H](C)Oc2ccc(NC(=O)CCCN(C)C)cc2C1=O | i | i | i | i |
| O=S(=O)(NC1c2cccc3cccc(c23)C1Sc1ncccn1)c1ccccc1 (stereo not drawn) | i | i | i | i |
| COc1ccc(S(=O)(=O)N(C)C[C@H]2Oc3ccc(NC(=O)Nc4ccc5c(c4)OCO5)cc3C(=O)N([C@H](C)CO)C[C@H]2C)cc1 | i | i | i | i |
| Cc1ccc(S(=O)(=O)Nc2nc(C)cc(N3N=N3)n2)cc1 | i | i | i | i |
| C[C@@H]1CN([C@@H](C)CO)C(=O)Cc2cc(NC(=O)NC3CCCCC3)ccc2O[C@@H]1CN(C)Cc1ccc(-c2ccccc2)cc1 | / | i | i | i |
| C[C@@H]1CCCCO[C@@H](CN(C)C(=O)c2ccncc2)[C@H](C)CN([C@H](C)CO)C(=O)c2cc(NS(=O)(=O)c3ccccc3)ccc2O1 | i | i | i | i |
| C[C@]12CCC(=O)C=C1CC[C@@H]1C2[C@@H](O)C[C@@]2(C)C1CC[C@@H]2C(=O)CO (stereo partly drawn) | i | i | i | i |
| c1ccc(Cc2nn3c(C4COc5ccccc5O4)nnc3s2)cc1 (stereo not drawn) | i | i | i | i |
| COc1ccc(CN(C)C[C@@H]2Oc3c(NC(=O)C4CCOCC4)cccc3C(=O)N([C@H](C)CO)C[C@H]2C)cc1 | i | i | i | i |
| C[C@@H]1CCCCO[C@@H](CN(C)Cc2ccccc2)[C@H](C)CN([C@H](C)CO)C(=O)c2cc(NC(=O)Nc3ccc4c(c3)OCO4)ccc2O1 | i | i | i | i |
| NS(=O)(=O)c1ccc(NC(=S)NCCN2CCOCC2)cc1 | i | i | i | i |
| C=C1C(=O)O[C@H]2[C@H]1[C@@H](OC(=O)C(C)CO)C[C@@]1(C)[C@H](O)CCC(=O)[C@H]21 (stereo partly drawn) | i | i | i | i |
| Cc1cc(C)nc(SCC(=O)N2CCN(c3nnc(-c4ccccc4)c4ccccc34)CC2)n1 | i | i | i | i |
| C[C@H](CO)N1C[C@H](C)[C@H](CN(C)S(=O)(=O)c2cccs2)Oc2c(NC(=O)C3CCOCC3)cccc2C1=O | i | i | i | i |
| COc1ccc(S(=O)(=O)Nc2cccc3c2O[C@H](CN(C)CC2CCCCC2)[C@@H](C)CN([C@@H](C)CO)C3=O)cc1 | / | i | i | i |
| CC1(C)CC[C@]2(C(=O)O[C@@H]3O[C@H](CO)[C@@H](O)[C@H](O)[C@H]3O)CC[C@]3(C)C(=CCC4[C@@]5(C)CC[C@H](O[C@@H]6O[C@H](CO)[C@@H](O)[C@H](O[C@@H]7O[C@H](CO)[C@@H](O)[C@H](O)[C@H]7O)[C@H]6O[C@@H]6O[C@H](CO)[C@H](O)[C@H](O)[C@H]6O)C(C)(C)C5CC[C@]43C)[C@@H]2C1 (stereo partly drawn) | i | i | i | i |
| CC(C)NC(=O)Nc1ccc2c(c1)C(=O)N([C@H](C)CO)C[C@H](C)[C@H](CN(C)C(=O)Nc1ccc(F)cc1)OCCCC[C@H](C)O2 | i | i | i | i |
| Cc1noc(C)c1S(=O)(=O)N(C)C[C@@H]1Oc2c(NC(=O)c3nc4ccccc4s3)cccc2C(=O)N([C@@H](C)CO)C[C@@H]1C | i | i | i | i |

Molecules above with an aryl thioether with sulfur outside any ring, in the order listed:
| SMILES | ID4 SMM | mut p53 SMM | Myc binder | STAT3 SMM |
| --- | --- | --- | --- | --- |
| CCc1cccc(C)c1NC(=O)CSc1nnc(C)n1-c1ccc(F)cc1 | i | i | i | i |
| CC(C)(C)c1ccc(S(=O)(=O)CCSc2nc3ccccc3o2)cc1 | i | i | i | i |
| O=C(CCSc1nc2ccccc2s1)Nc1ccccc1Cl | i | i | i | i |
| O=S(=O)(NC1c2cccc3cccc(c23)C1Sc1ncccn1)c1ccccc1 (stereo not drawn) | i | i | i | i |
| Cc1cc(C)nc(SCC(=O)N2CCN(c3nnc(-c4ccccc4)c4ccccc34)CC2)n1 | i | i | i | i |

Assay outcomes (PubChem BioAssay)
